UCH37 DUB inh = human UCH37 deubiquitinating enzyme inhibition. 0.33% of 330,000 active. AID 588478. inhibition, % (test concentration not listed). purified proteasome/UCH37, Ub-AMC cleavage fluorescence. Q9Y5K5;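 active means mean of two replicates above 20%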;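 further: 0% = compound-free wells with enzyme and 100% = wells lacking proteasome; stock transfer was 100 nL into about 20 µL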
Target sequence (Q9Y5K5 whole entry, looked up): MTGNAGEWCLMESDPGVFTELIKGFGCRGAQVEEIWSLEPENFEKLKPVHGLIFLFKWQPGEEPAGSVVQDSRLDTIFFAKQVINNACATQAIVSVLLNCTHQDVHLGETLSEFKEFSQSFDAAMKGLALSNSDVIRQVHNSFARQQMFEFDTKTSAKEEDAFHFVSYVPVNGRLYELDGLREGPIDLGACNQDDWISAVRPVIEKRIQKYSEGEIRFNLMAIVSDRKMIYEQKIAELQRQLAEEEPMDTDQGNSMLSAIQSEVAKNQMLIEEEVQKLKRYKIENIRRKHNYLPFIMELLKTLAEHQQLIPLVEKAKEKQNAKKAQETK
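Material: human UCH37 enzyme supplied as purified proteasome complex. Measure: % inhibition of Ub-AMC cleavage fluorescence. Medium: pH 7.4 Tris-HCl (50 mM) with ovalbumin, ATP-MgCl2, DTT. Times: 30 min preincubation with enzyme, 25 min cleavage at room temperature. Detection: AMC fluorescence intensity at 355/460 nm.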
HNF4A DNA FP = change in binding of human HNF4 alpha to DNA | activity change, % at 10 µM | HNF4a-FITC DNA binding, fluorescence polarization, 1 h | AID 1224865 | 0.3% of 360,000 active; in the data active means activity change above about 30%, passing the limit was not always enough;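 further: controls were the assay level and a saturating level of protein; the project sought stronger binding though the title names inhibitors; some compounds called inactive have numbers as strong as hits; positive values seem to mean higher polarization but the record does not say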
Target sequence (P41235 whole entry, looked up): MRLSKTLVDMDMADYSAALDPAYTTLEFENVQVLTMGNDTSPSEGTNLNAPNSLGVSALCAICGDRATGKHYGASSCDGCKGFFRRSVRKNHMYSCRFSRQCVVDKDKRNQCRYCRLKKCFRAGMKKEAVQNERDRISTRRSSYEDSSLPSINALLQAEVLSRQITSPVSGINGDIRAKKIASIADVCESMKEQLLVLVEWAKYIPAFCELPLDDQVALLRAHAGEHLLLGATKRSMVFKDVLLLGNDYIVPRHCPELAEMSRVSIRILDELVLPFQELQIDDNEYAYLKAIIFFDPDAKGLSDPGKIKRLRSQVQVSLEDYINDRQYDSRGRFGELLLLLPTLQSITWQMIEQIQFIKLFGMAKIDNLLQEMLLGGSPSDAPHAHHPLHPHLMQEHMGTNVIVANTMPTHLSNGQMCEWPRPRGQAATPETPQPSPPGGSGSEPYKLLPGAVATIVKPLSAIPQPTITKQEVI
E coli growth = inhibitors of Escherichia coli growth | OD600, 23 h; stronger effect = lower value | OD600 absorbance (concentration not given with the values) | 0.21% of 330,000 active | AID 1053175;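 active means OD600 absorbance below the run mean of sample wells minus 3.6 SD, in any replicate, cut at about 0.56 in these data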;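 further: stock transfer was 300 nL into about 60 µL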
A1 inh = inhibitors of the anti-apoptotic protein A1, read as caspase activation | MEF A1-2A-BIM cells, Caspase-Glo 3/7 luminescence, 3 h; percent of clofoctol response, vehicle zero | caspase activation, % (no concentration beside the values) | 0.066% of 330,000 active | AID 2462;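 active means over half of replicate activation scores above 10%, or exactly half above 10 with the replicate mean above 10; inconclusive means replicate mean below 10 yet half the replicates above 10; inactive means over half of replicates below 10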;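 further: wells of about 30 µL received 50 nL stock; many hits fall short of the cut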
Beta2AR agonist = agonists of human beta-2 adrenergic receptor inducing internalization; response, % (concentration not given with the values); 0.43% of 340,000 active; Am2.2-beta2AR cells, FAP receptor internalization, flow cytometry; reference of the scale not given here; P07550; AID 504454;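 active means response above a set limit, near 3 SD of response in nonfluorescent compounds, cut at about 42% in these data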;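 further: stock transfer was 100 nL into about 11 µL; a reference agonist was the positive control; negative values mostly stem from fluorescent compounds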
LANA-H2A inh = blocks KSHV LANA binding to histone H2A/H2B; Q9QR71; cell-free LANA-H2A/H2B peptide, fluorescence polarization; inhibition, % (no concentration beside the values); 0.6% of 320,000 active; AID 2629; in the data active means inhibition mostly above about 10%, no sharp cut-off; inactive means mostly below about 6.7%;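 further: stock transfer was 7.5 nL into about 10 µL; 0% = median of vehicle wells and 100% = median of positive control wells; one replicate is shown; the record names a cut of 25% in any replicate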
Vif A3G = HIV-1 Vif–A3G interaction blockers – biochemical, TR-FRET, GST-Vif 1-94, biotin-A3G peptide, dose response retest, primary screen (AID 1117319); TR-FRET GST-Vif / biotin-A3G peptide binding; higher % means a stronger effect; test concentration not given here; strong numbers were not always called active; one-dose inhibition, %; IC50 in µM for titrated hits; 0.57% of 260,000 active;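 active means above the screen mean plus three standard deviations and confirmed in dose response; inconclusive means results disagree or hit not tested in dose response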;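 further: Vif residues 1-94 fused to GST binding biotinylated APOBEC3G peptide 110-148; 0% = full assay without inhibitor and 100% = GST in place of GST-Vif; retest series ran down from 100 µM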
* hit, by the source's call; ? = inconclusive; / = no result given; & = joins results of further samples.

SMILES	UCH37 DUB inh	HNF4A DNA FP	E coli growth	A1 inh	Beta2AR agonist	LANA-H2A inh	Vif A3G
COc1ccc(C=NNC(=S)NN=Cc2ccc(OC)c(OC)c2)cc1OC	14	-4.9	0.69	/	10	/	-5%
Cc1cc(NC(=O)c2oc3ccccc3c2C)ccc1-n1cnnn1	-5.2	3.1	0.7	-1.1	-3	-1.9	-2%
O=C(CNC1CCCCC1)Nc1cccc([N+](=O)[O-])c1	2.4	-0.1	0.68	-0.3	-3	9.9	/
CCCC(=O)NC(Nc1cc(C(F)(F)F)ccc1Cl)C(Cl)(Cl)Cl (stereo not drawn)	5.5	6.1	0.69	-0.7	10	-0.3	1%
COc1ccc(C(=O)Nc2c(N)nc(SCC(=O)N3CCCCCC3)[nH]c2=O)cc1OC	5.1	-1.4	0.75	0.4	-8	-0.3	8%
Oc1nc(-c2ccc(Cl)cc2)n2ccncc12	-4.8	0.2	0.65	-1.3	6	-6.6	/
CCOC(=O)N1CCN(C(=O)c2ccc(C)c(S(=O)(=O)N3CCCCC3)c2)CC1	0.7	-0.2	0.7	0.8	-12	4.7	-5%
COCC1CCCCN1C(=O)c1ccc2oc(CCCc3ccccc3)nc2c1 (stereo not drawn)	5.6	2.5	0.7	0.0	-4	-5.2	-7%
CC(=O)NCCc1nc2cc(NC(=O)c3ccccc3Cl)ccc2n1C	0.1	0.4	0.67	0.3	1	-2.1	0%
Cn1c(NC(=O)Cc2cccc3ccccc23)cc(=O)n(C)c1=O	8.4	-3.2	0.72	-0.3	1	-2.3	29%
Cn1c(=O)c(C(=O)NCc2ccc(Cl)cc2)c(O)c2ccccc21	-1.0	-0.8	0.69	0.5	-13	9.3	-3%
CC(C)(C)C(=O)/C=c1\[nH]c(=O)/c(=C\c2ccccc2F)s1	/	2.1	/	-0.9	-8	2.6	-12%
CCOC(=O)Nc1ccc(NC(=O)OCC)cc1	5.5	2.4	0.65	-2.2	3	1.8	0%
O=C1c2ccccc2NC(c2cccc(O)c2)N1c1ccccc1 (stereo not drawn)	-370	3.0	0.68	-0.4	14	-1.7	-31%
COCCCNC(=O)CCn1c(=O)c2ccccc2n(CC(=O)Nc2cc(Cl)ccc2C)c1=O	-0.5	4.2	0.75	0.5	-2	0.8	-5%&3%
Cc1ccc(NS(=O)(=O)c2ccc3c(c2)NC(=O)CCS3)c(C)c1	4.7	1.6	0.7	-0.5	3	-3.6	/
CCc1cccc2c(C(=O)CSc3nnc(-c4ccncc4)n3C)c[nH]c12	-0.1	2.8	0.71	-0.6	2	0.3	16%
CC(C)CC1COC(=O)N1 (stereo not drawn)	2.6	3.3	0.65	0.9	-1	0.9	/
O=C(NCCc1nnc2ccc(NCC3CCCO3)nn12)c1ccccc1 (stereo not drawn)	-1.3	-2.1	0.72	0.6	-1	2.6	1%
COC(=O)C(Cc1cnc(Cl)s1)(C(=O)OC)c1ccc(C(F)(F)F)cc1[N+](=O)[O-]	4.7	1.4	0.73	-0.4	7	-3.7	-3%
Cc1ccc(OCC(=O)Nc2ccccc2[N+](=O)[O-])c(Br)c1	2.7	3.8	0.73	1.9	9	-4.9	-7%
COc1ccccc1NC(=O)Nn1cnnc1	1.4	-1.0	0.68	1.0	0	-2.9	5%
COC(=O)C1=C(C)NC(=O)/C1=C\c1cc(C)n(-c2c(C)cccc2C)c1C	4.4	4.8	0.66	0.7	2	5.9	22%
O=C1OCCC1(c1ccccc1)c1ccccc1	3.4	1.5	0.68	/	-4	/	-1%
CCCC(=O)Nc1nnc(SCC(=O)N2CCN(c3ccccc3)CC2)s1	1.9	4.0	0.7	-0.4	-5	5.0	1%
CN(C(=O)CSc1nnc(-c2ccco2)n1Cc1ccccc1)C1CCS(=O)(=O)C1 (stereo not drawn)	1.6	1.7	0.62	0.6	-6	-0.4	/
NS(=O)(=O)c1ccc(CNC(=O)c2ccc3ccccc3n2)cc1	0.5	3.6	0.68	0.2	2	3.0	/
CC(=O)NCc1ccc(S(=O)(=O)N/N=C/c2ccc(N(C)C)cc2)cc1	/	-1.9	/	0.3	-2	6.5	-4%
CN1CCC(N2CCCC(C(=O)O)C2)CC1 (stereo not drawn)	-0.4	0.3	0.69	0.6	-3	-3.6	-3%
CC(=O)N1CCN(C(=O)c2ccc(C)c(S(=O)(=O)N3CCCCC3)c2)CC1	1.4	-6.5	0.71	0.1	7	-3.9	/
CCC(=O)OC1c2ccccc2C(=O)N1Cc1ccccc1 (stereo not drawn)	1.1	1.2	0.76	0.8	-2	2.6	-1%
CCOC(=O)N1CCC(N2C(=O)c3ccccc3C2Nc2ccc(S(=O)(=O)N(CC)CC)cc2)CC1 (stereo not drawn)	1.6	2.3	0.71	0.3	-11	-1.5	-6%
COC(=O)C1=C(Nc2ccccc2NC(=O)c2ccccc2C(=O)O)CSC1	-2.6	1.2	0.68	-0.2	7	-2.8	6%
CCOC(=O)C1=C(C)N(CCCC(=O)O)C(=O)NC1c1ccccc1OS(=O)(=O)c1ccc([N+](=O)[O-])cc1 (stereo not drawn)	1.9	0.2	0.71	1.6	-3	-1.7	/
CCC(C)(C)C1CCc2[nH]nc(C(=O)NC3CCCCC3)c2C1 (stereo not drawn)	1.4	-1.6	0.73	?	-10	0.7	/
COc1ccc(C(C)=O)cc1CSc1nnc(C)s1	3.4	-3.2	0.66	0.7	-9	1.3	-5%
O=C(COc1ccc2ccc(=O)oc2c1)Nc1cccnc1	-23	-0.6	0.72	1.0	6	11	-5%
O=C(CN1C(=O)C2CC=CCC2C1=O)NC1CCCc2ccccc21 (stereo not drawn)	1.3	3.0	0.7	0.0	0	1.0	-1%
Cc1cc(C(F)F)nn1CC(=O)N1CCSCC1	2.1	1.3	0.73	0.6	18	3.0	0%
CCOC(=O)C(Oc1ccc2c(-c3ccc(OC)cc3)cc(=O)oc2c1C)c1ccccc1 (stereo not drawn)	2.5	-1.8	0.76	-0.3	-8	0.8	2%
O=C(C(c1ccccc1)c1ccccc1)N1CC[C@@]2(O)CCCC[C@H]2C1	3.1	0.3	0.67	0.4	-2	-0.6	?
COc1ccc(NC(=O)CSc2nnc(-c3ccoc3C)n2CC2CCCO2)cc1 (stereo not drawn)	-0.4	0.3	0.7	-0.3	-2	-4.8	6%
COC(=O)c1ccc(Oc2c(C(F)(F)F)oc3c(CN4CCN(C)CC4)c(O)ccc3c2=O)cc1	2.2	-2.5	0.71	0.5	5	-2.6	13%
CCOC(=O)c1cocc1C(=O)O	/	1.1	/	/	6	/	6%
CC1(C)c2ccccc2-c2nc3ccccc3cc2C1O (stereo not drawn)	1.2	1.0	0.62	-3.3	-2	3.0	-2%
O=C(NCCS(=O)(=O)NCCc1ccccc1)c1ccc2c(c1)OCO2	1.4	4.0	0.62	-0.1	-1	3.3	6%
COc1ccc(/C=N/NC(=O)CC(=O)NCCc2ccccc2)cc1OC	/	-0.1	/	0.0	8	6.8	12%
Nc1nonc1NC(=O)CSc1ncccc1C(=O)O	4.1	-1.1	0.66	-0.2	-3	3.5	4%
Cc1ccc(-c2c(C(=O)N/N=C/c3ccc4c(c3)OCO4)nnn2-c2nonc2N)cc1	/	-4.3	/	1.9	8	-3.3	/
CCN(CC)c1ccc(CNc2ccc3c(c2)ncn3CC)cc1	-2.1	/	0.66	0.1	/	-5.5	/

More compounds:
SMILES	UCH37 DUB inh	HNF4A DNA FP	E coli growth	A1 inh	Beta2AR agonist	LANA-H2A inh	Vif A3G
Cc1ccccc1N1CN(Cc2ccco2)CNC1=S	-1.0	1.8	0.7	0.1	0	3.3	-5%
O=C(NNC(=O)c1ccncc1)Nc1ccc(Br)cc1	2.9	-6.4	0.65	/	-2	/	1%
COC(=O)C1=C(C)NC(C)=C(C(=O)OC)C1c1cc2cc(C)ccc2[nH]c1=O	-37	2.6	0.68	1.7	0	-5.7	-2%
Cc1ccn2c(NC(=O)c3ccccc3)c(-c3ccccc3)nc2c1	2.2	2.2	0.67	0.1	-6	0.2	-6%
Cc1cccc(NC(=O)c2oc3c(c2C)C(=O)CC(C)(C)C3)n1	5.0	-3.3	0.7	0.0	-8	-2.3	-2%
Cn1cnnc1SCC(=O)c1ccc2c(c1)OCO2	1.0	0.9	0.69	-0.6	0	-4.2	27%
O=C(Nc1cccnc1)c1cccc(F)c1	2.5	-2.6	0.7	0.4	4	-4.3	-4%
Cc1ccc(S(=O)(=O)Nc2ccccc2C(=O)N2CCCCCC2)cc1	3.2	2.2	0.63	0.8	1	-6.3	/
CCCCc1nn2c(N)c(/C=C3\C=Nc4ccccc43)c(=O)nc2s1	-29	5.6	0.73	-0.1	-2	-6.1	7%
Cc1ccc(NC(=O)CSCC(=O)Nc2sccc2C#N)cc1	0.8	7.8	0.7	-0.5	4	1.5	-3%
COCCNc1ccc(S(=O)(=O)N2CCCC2)cn1	-1.1	-0.9	0.69	-0.1	1	0.9	-5%
CCc1nc(SCC(=O)N2c3ccccc3CC2C)c2c(C)c(C)sc2n1 (stereo not drawn)	6.2	1.3	0.71	-0.2	-3	1.0	-10%
CC(Nc1ccc(F)cc1)=[N+](C)CCNS(=O)(=O)c1ccc(Cl)cc1	1.5	3.3	0.67	-0.8	2	-3.4	5%
COc1cc2c(cc1NC(=O)c1ccc(C)c([N+](=O)[O-])c1)oc1ccccc12	4.3	-5.8	0.72	-0.2	7	0.4	/
Cc1ccccc1N=Nc1c(N)n[nH]c1N	11	-0.3	0.63	2.1	1	1.9	0%
CN(CC(=O)N1CCN(c2ccccn2)CC1)S(=O)(=O)c1ccc2ccccc2c1	2.8	-3.9	0.68	0.5	-2	-9.8	3%&2%
O=C(NCCC1=CCCCC1)C1CCCN(S(=O)(=O)c2ccc(F)cc2)C1 (stereo not drawn)	2.9	-2.4	0.73	0.3	-8	7.7	3%
CC1CCCC(C)N1C(=O)COC(=O)Cc1ccc(Cl)cc1 (stereo not drawn)	0.0	0.8	0.62	-1.7	-4	2.8	0%
Nn1c(N2CCCCC2)nc2ccccc21	2.2	5.0	0.77	-2.7	-7	-3.1	2%
COc1cc2[nH]c(=O)n(CCC(=O)N3CCN(c4cc(Cl)ccc4C)CC3)c(=O)c2cc1OC	0.8	-2.6	0.73	-0.4	-2	-2.7	-5%
COc1ccc(S(=O)(=O)N2CCC(C(=O)NCCN3CCOCC3)CC2)cc1C	-1.0	1.2	0.65	-0.2	12	3.5	/
CCOC(=O)C1(Cc2cccc(OC)c2)CCN(CC2CC=CCC2)CC1 (stereo not drawn)	3.6	5.7	0.67	-0.1	3	1.5	-4%
S=c1nc2ccccc2c2nc(-c3ccccc3Br)[nH]n12	1.6	-0.9	0.69	-0.1	-2	-5.7	-8%
CC(C)c1ccc(NC(=O)C2CCN(S(C)(=O)=O)CC2)cc1	1.5	-2.7	0.8	0.0	3	6.0	-3%
Cc1ccc(/C=N\NC(=O)Cn2c(C)nc3ccccc32)o1	/	4.5	/	-1.6	-4	1.7	9%
CCOC(=O)/C=C1\NC(=O)CS1	2.9	-0.3	0.76	-0.7	1	8.5	-5%
CCOC(=O)N1CCN(C(=O)C(C)n2nc(C)n3c(cc4sccc43)c2=O)CC1 (stereo not drawn)	-1.9	-3.5	0.7	0.5	-29	7.4	8%

An excerpt from above in order of count of non-hydrogen atoms, lowest first:
SMILES	UCH37 DUB inh	HNF4A DNA FP	E coli growth	A1 inh	Beta2AR agonist	LANA-H2A inh	Vif A3G
S=c1nc2ccccc2c2nc(-c3ccccc3Br)[nH]n12	1.6	-0.9	0.69	-0.1	-2	-5.7	-8%
CC(C)c1ccc(NC(=O)C2CCN(S(C)(=O)=O)CC2)cc1	1.5	-2.7	0.8	0.0	3	6.0	-3%
CCOC(=O)N1CCN(C(=O)C(C)n2nc(C)n3c(cc4sccc43)c2=O)CC1 (stereo not drawn)	-1.9	-3.5	0.7	0.5	-29	7.4	8%

Screening data as filed in PubChem.
